# Rango release inh = inhibitors of RanGTP-induced Rango-importin beta complex dissociation. 0.071% of 340,000 active. Potency, µM (titrated, usually from 46.1 µM), for the others: at the highest dose activity change, negative = inhibition. AID 540253. Biochemical FRET Rango-importin beta, RanGTP-induced dissociation. O95149+P62826; active means falling FRET ratio curve, often poorly fitted, with flat reads before Ran was added; inconclusive means other falling curves, or compound fluorescence or quenching; inactive means flat or rising ratio curve;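 further: potency means the concentration at half of the fitted maximal effect; % of control where 0% means no effect; nearly all actives have a fitted effect of over 45% in size; -100% = wells without RanGTP and RCC1; the record marks most hits as doubtful in a second field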
#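 FRET read at 45 min, room temperature: inhibitors block the CFP/YFP signal rise when RanGTP (0.6 uM Ran, 2 mM GTP, 0.2 uM RCC1) frees Rango (0.1 uM) from importin beta (0.25 uM). Pre-read after 5 min compound exposure flags interference.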
# Rango-impB inh = Rango-importin beta binding inhibition; Q14974; Rango CFP/YFP FRET sensor + importin beta, 45 min; Potency, µM (titrated, usually from 92.2 µM), for inactives: at the top dose inhibition of complex formation; 0.031% of 340,000 active; AID 540263; active = rising FRET ratio curve, often small or poorly fitted; inconclusive = mostly compound fluorescence or quenching in the first reads; inactive = flat curves in all reads;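 further: potency means the concentration at half of the fitted maximal effect; 0% = DMSO wells and 100% = buffer wells lacking importin beta; nearly all actives have a fitted effect of over 15% in size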
# Target sequence (Q14974 whole entry, looked up): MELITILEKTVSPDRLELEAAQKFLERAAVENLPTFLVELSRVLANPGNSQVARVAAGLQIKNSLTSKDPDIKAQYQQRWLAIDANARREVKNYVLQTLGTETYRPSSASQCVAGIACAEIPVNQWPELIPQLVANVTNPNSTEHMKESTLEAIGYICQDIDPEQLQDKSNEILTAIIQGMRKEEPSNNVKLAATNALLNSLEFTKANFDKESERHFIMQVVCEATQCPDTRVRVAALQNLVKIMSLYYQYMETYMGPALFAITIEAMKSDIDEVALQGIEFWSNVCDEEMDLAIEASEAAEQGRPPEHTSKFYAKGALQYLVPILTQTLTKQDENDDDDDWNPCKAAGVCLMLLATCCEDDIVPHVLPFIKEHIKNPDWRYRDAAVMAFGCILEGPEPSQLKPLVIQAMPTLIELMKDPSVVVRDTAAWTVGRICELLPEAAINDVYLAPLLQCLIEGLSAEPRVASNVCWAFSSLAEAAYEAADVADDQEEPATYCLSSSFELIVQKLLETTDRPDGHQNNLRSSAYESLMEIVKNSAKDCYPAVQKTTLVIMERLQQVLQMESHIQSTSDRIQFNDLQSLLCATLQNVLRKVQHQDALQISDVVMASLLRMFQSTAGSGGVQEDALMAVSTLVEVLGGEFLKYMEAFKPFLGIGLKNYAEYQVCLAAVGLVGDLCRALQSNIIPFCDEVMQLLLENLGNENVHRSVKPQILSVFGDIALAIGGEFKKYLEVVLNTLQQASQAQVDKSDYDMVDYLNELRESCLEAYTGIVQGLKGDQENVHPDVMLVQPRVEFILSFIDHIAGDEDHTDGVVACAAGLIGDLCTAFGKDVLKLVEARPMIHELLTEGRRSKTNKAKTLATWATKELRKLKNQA
#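 FRET biosensor Rango (snurportin 1 IBB between N-terminal EYFP and C-terminal Cerulean), 50 nM in PBS/1 mM DTT/0.02% Tween-20/0.1% BSA, preincubated 5 min RT with compound; 0.125 microM importin beta added, 45 min RT, CFP/YFP FRET ratio read.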
# GLA inh pH 4.5 = blocks human alpha-galactosidase A at pH 4.5; P06280; purified enzyme, 4-MU-alpha-Gal fluorescence, pH 4.5; activity change, negative = inhibition, % at 105 µM; 230,000 tested, under 10 active; AID 1467; inconclusive = small, poorly fitted or top-dose-only inhibition, or a rising curve; inactive = flat fitted curve, though single readings scatter; no compound was filed as active;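 further: 0% = full activity with enzyme and -100% = basal without enzyme; dose as in the result columns while the protocol names 77 µM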
# miR-21 FLuc = miR-21 reporter, rising signal | Potency, µM (series often up to 38.3 µM), for inactives: top-dose reporter change, positive = more light | 340,000 tested, under 10 active | AID 2288 | HeLa miR-21 FLuc reporter, luciferase, 48 h; active = well fitted rising curve with a large enough effect; inconclusive = small, poorly fitted or top-dose-only effect; inactive = no such curve, though single readings can be large or run the other way;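 further: % of control where 0% means no effect; miR-21 action dims this reporter so a rising signal means less miR-21 action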
#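 Using DMEM plus 10% FBS, HeLa miR-21-FLuc cells are incubated with test compounds (final up to about 40uM) for 48 hours; firefly luciferase signal is then imaged following reagent-mediated lysis.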
# An asterisk follows results filed as active; ? = inconclusive; nt = not tested or not shown.
cpd	Compound	Rango release inh	Rango-impB inh
1	CC1(C)Cc2ccccc2C(NNC(=O)c2ccc(Br)o2)=N1	5%	-2.7%
2	CCOC(=O)C1=C(C(F)(F)F)Nc2ncnn2C1c1cc(OC)ccc1OC (stereo not drawn)	-3%	-0.9%
3	CCc1ccc(-c2nc(CSCC(=O)NCCCN3CCCC3=O)c(C)o2)cc1	-5%	2.6%
4	NS(=O)(=O)c1ccc(OC(=O)CNC(=O)OCc2ccccc2)cc1	18%	1.2%
5	CCOC(=O)C1(CC2CCCCO2)CCN(Cc2nccn2-c2ccc(OC)cc2)CC1 (stereo not drawn)	3%	1.1%
6	CCOC(=O)C1=C(CC)Nc2ccccc2N/C1=N\S(=O)(=O)c1cccc(C(C)=O)c1	17%	3.4%
7	Cc1cc(OCC(=O)N2CCN(c3ccccc3)CC2)c2c(C)cc(=O)oc2c1	21%	0.0%
8	O=C(COc1ccccc1/C=C1/NC(=O)NC1=O)Nc1ccccc1	-11%	-2.5%
9	O=C(O)c1cc2cc(Cl)ccc2oc1=O	5%	0.4%
10	CC(=O)c1ccccc1NC(=O)C1CC(=O)N(c2ccc3c(c2)OCCO3)C1 (stereo not drawn)	2%	-3.4%
11	COc1ccc(CNC(=O)CCc2nnc3ccc(N4CCC5(CC4)OCCO5)nn23)cc1	-17%	3.1%
12	O=C(C1CCCO1)N1CCN(S(=O)(=O)c2cccc3nsnc23)CC1 (stereo not drawn)	-3%	2.2%

cpd	GLA inh pH 4.5	miR-21 FLuc
1	nt	nt
2	2	-3%
3	7	6%
4	nt	nt
5	11	-2%
6	nt	nt
7	nt	-1%
8	-7	-2%
9	8	-10%
10	nt	nt
11	nt	-3%
12	6	1%

# No new results follow: an excerpt of the list.
cpd	Compound	Rango release inh	Rango-impB inh
1	CC1(C)Cc2ccccc2C(NNC(=O)c2ccc(Br)o2)=N1	5%	-2.7%
2	CCOC(=O)C1=C(C(F)(F)F)Nc2ncnn2C1c1cc(OC)ccc1OC (stereo not drawn)	-3%	-0.9%
3	CCc1ccc(-c2nc(CSCC(=O)NCCCN3CCCC3=O)c(C)o2)cc1	-5%	2.6%
4	NS(=O)(=O)c1ccc(OC(=O)CNC(=O)OCc2ccccc2)cc1	18%	1.2%
5	CCOC(=O)C1(CC2CCCCO2)CCN(Cc2nccn2-c2ccc(OC)cc2)CC1 (stereo not drawn)	3%	1.1%
6	CCOC(=O)C1=C(CC)Nc2ccccc2N/C1=N\S(=O)(=O)c1cccc(C(C)=O)c1	17%	3.4%

cpd	GLA inh pH 4.5	miR-21 FLuc
1	nt	nt
2	2	-3%
3	7	6%
4	nt	nt
5	11	-2%
6	nt	nt

# Random excerpt: two compounds from above
cpd	Compound	Rango release inh	Rango-impB inh
7	Cc1cc(OCC(=O)N2CCN(c3ccccc3)CC2)c2c(C)cc(=O)oc2c1	21%	0.0%
6	CCOC(=O)C1=C(CC)Nc2ccccc2N/C1=N\S(=O)(=O)c1cccc(C(C)=O)c1	17%	3.4%

cpd	GLA inh pH 4.5	miR-21 FLuc
7	nt	-1%
6	nt	nt

# Next structures
cpd	Compound	Rango release inh	Rango-impB inh
13	O=[N+]([O-])c1ccc(OCCCOc2cccc3cccnc23)cc1	-14%	?
14	Cc1nn(CCO)c2nc(-c3cccs3)cc(C(F)(F)F)c12	3%	1.7%
15	COc1ccc(C(=O)Nc2ccc(C(=O)c3ccccc3)cc2)cc1	2%	-3.3%
16	Cc1cccc(N(C(=O)c2csnn2)C(C(=O)NCc2ccccc2)c2cccs2)c1 (stereo not drawn)	-10%	4.0%
17	COc1ccccc1C(O)(C(=O)NNc1cccc(C)c1)c1ccccc1OC	-27%	-0.3%
18	CCOC(=O)n1c(=O)n(Cc2ccccc2Cl)c2ccccc21	3%	0.4%
19	CC(C)n1c(=NC(=O)c2ccco2)c(C#N)cc2c(=O)n3ccccc3cc21	?	?
20	Nc1cc2c(cc1Cl)-c1ccc([N+](=O)[O-])cc1C2=NO	-2%	10%
21	C=CCn1c(SCC(=O)NC(=O)NCc2ccco2)nc2sc(CC)cc2c1=O	1%	1.2%
22	COC(=O)N/N=C(/c1ccccc1)C1CCCCC1	nt	nt
23	COc1cccc(CN2CCNC(=O)C2CC(=O)NCCn2cccn2)c1OC (stereo not drawn)	-6%	1.8%
24	CC(=O)CCc1ccc(Oc2nc(-c3cccnc3)nc3ccccc23)cc1	-9%	-2.6%

cpd	GLA inh pH 4.5	miR-21 FLuc
13	nt	-11%
14	9	-10%
15	nt	nt
16	nt	7%
17	-7	-5%
18	-24	-8%
19	?	-9%
20	nt	nt
21	5	-6%
22	9	-2%
23	-2	-4%
24	-4	13%

# Next part.
cpd	Compound	Rango release inh	Rango-impB inh
25	CCCNC(=O)C1CN(S(=O)(=O)c2ccccc2)CCN1S(=O)(=O)c1ccccc1 (stereo not drawn)	-15%	0.1%
26	Nc1nc(SCC(=O)Nc2cc(Cl)ccc2Cl)n[nH]1	7%	-0.7%
27	CC(C)(C)Cc1nc2ccccc2n1CCc1ccccc1	-10%	7.7%
28	COc1ccc(C(=O)OCC(=O)c2ccc3c(c2)NC(=O)CO3)cc1S(=O)(=O)N1CCOCC1	9%	0.0%
29	COCCNC(=O)c1nn(-c2cc(OC)cc(OC)c2)c(=O)c2ccccc12	12%	0.1%
30	Cc1cccc2c1-c1sc(C(=O)NCCCN3CCc4ccccc4C3)cc1CO2	-27%	-4.0%
31	O=C(NCc1nc2ccccc2[nH]1)C1=C[C@H](c2csc3ccccc23)C[C@H](OCc2ccc(CO)cc2)O1	1%	-3.4%
32	Cc1ccccc1-c1nc(CN2CCC(C(=O)NC3CC3)CC2)c(C)o1	6%	1.9%
33	CCCCCCCCC(=O)Nc1cc(C)ccc1OC	-5%	-0.7%
34	COc1ccc(-c2nc3c(c(=O)[nH]c(=O)n3Cc3ccccc3)n2CCO)cc1	-12%	-1.6%
35	COc1ccc(C(=O)NNC(=S)NC(=O)c2ccccc2[N+](=O)[O-])cc1	0%	-0.7%
36	CSc1cccc(NC(=S)N(C(C)C)C(C)c2ccccn2)c1 (stereo not drawn)	-5%	1.9%

cpd	GLA inh pH 4.5	miR-21 FLuc
25	2	-5%
26	nt	nt
27	0	1%
28	nt	nt
29	-11	-1%
30	24	-1%
31	-9	?
32	nt	-2%
33	-4	-5%
34	nt	3%
35	1	-23%
36	1	-13%

# Carrying on.
cpd	Compound	Rango release inh	Rango-impB inh
37	Clc1ccc(Cn2c(-c3cccnc3Cl)nc3ccccc32)c(Cl)c1	0%	5.7%
38	CCOC(=O)N1CCC(=NNC(=O)NC2CCCCC2)CC1	10%	-1.5%
39	CC1CCCCC1NC(=O)C(=O)NCC1CCCO1 (stereo not drawn)	-8%	0.0%
40	CCOC(=O)c1cc(-c2ccccc2)sc1NC(=O)C(C)Sc1nnc(C)s1 (stereo not drawn)	21%	-1.3%
41	CC(C)NC(=O)CN1C(=O)NC(CCc2ccccc2)C1=O (stereo not drawn)	-5%	1.8%
42	COC(=O)c1c(-c2cc(OC)cc(OC)c2)sc2ccc(OC)cc12	1%	1.2%
43	Cc1cc(C)c(C)c(C(=O)COC(=O)CNC(=O)CNC(=O)c2ccco2)c1C	1%	3.5%
44	CCOc1cc(/C=N/NC(N)=O)ccc1OCC(=O)Nc1ccc(C)c(C)c1	-2%	-0.3%
45	Cn1ncc([N+](=O)[O-])c1C(=O)Nc1ccccc1Cl	33%	-2.1%
46	CCC(=O)N1c2ccccc2NC2=C(C(=O)CCC2)C1c1ccc(N(C)C)cc1 (stereo not drawn)	2%	0.8%
47	CC(C)Sc1nnc(-c2ccc(S(=O)(=O)N3CCOCC3)cc2)n1C	1%	2.0%
48	O=C(NCCCn1ccnc1)c1cccnc1	-11%	-2.1%

cpd	GLA inh pH 4.5	miR-21 FLuc
37	-2	-9%
38	3	-10%
39	2	-20%
40	-7	-23%
41	1	-5%
42	nt	nt
43	nt	0%
44	-16	-8%
45	nt	-4%
46	-3	-13%
47	nt	7%
48	3	-1%

# (listing goes on)
cpd	Compound	Rango release inh	Rango-impB inh
49	c1ccc(CN2CCN(c3nc4ccccc4c4ccccc34)CC2)cc1	-11%	3.6%
50	CCCCSc1nnc2c(n1)OC(C(=O)c1ccccc1)Nc1ccccc1-2 (stereo not drawn)	nt	nt
51	CCOCCOc1nc2c(c(=O)n(C)c(=O)n2C)n1CCc1ccccc1	-20%	0.6%
52	CC(C)C(OC(=O)c1nsc(Cl)c1Cl)C(=O)NCc1ccc2c(c1)OCO2 (stereo not drawn)	4%	5.0%
53	CCCCn1c(=O)c(C(=O)c2ccccc2)nc2ccccc21	-9%	0.1%
54	COc1ccc(C(=O)N2CCC(C(=O)c3c(C)cc(C)cc3C)CC2)cc1	18%	1.4%
55	CCOc1ccc(Nc2cc(=O)n(C)c(=O)n2C)cc1	3%	-2.9%
56	COCCn1c(SCC(=O)Nc2c(C)n(C)n(-c3ccccc3)c2=O)nnc1-c1ccncc1	-4%	?
57	Cc1ccc(S(=O)(=O)NC2CCCc3ccccc32)cc1C (stereo not drawn)	12%	2.4%
58	O=C(NCCCN1CCCC1=O)c1cccc(S(=O)(=O)N2CCCCC2)c1	8%	-2.7%
59	COc1ccc(-c2cc(=O)[nH]c(NCc3ccccc3)n2)cc1	2%	0.2%
60	O=S(=O)(Nc1cccc(-c2cn3c(n2)SCC3)c1)c1ccc(F)cc1F	-3%	?

cpd	GLA inh pH 4.5	miR-21 FLuc
49	3	-10%
50	-7	-20%
51	3	-3%
52	-4	0%
53	-5	-5%
54	-9	9%
55	5	-3%
56	nt	nt
57	-11	0%
58	nt	nt
59	-2	-6%
60	nt	1%

# Carrying on:
cpd	Compound	Rango release inh	Rango-impB inh
61	CCOc1ccc2[nH]c3c(N4CCC5(CC4)OCCO5)ncnc3c2c1	-2%	-1.2%
62	C=CCNC(=S)N/N=C/c1ccccc1OCCOc1ccccc1	2%	4.6%
63	O=C(Cc1ccc(Br)cc1)N1CCN(C(=O)c2ccco2)CC1	-21%	-1.6%
64	COc1ccc(-c2nnn(CC(=O)Nc3ccc4c(c3)OCCO4)n2)cc1OC	24%	1.9%
65	CC1(C)CC(=O)C2=C(C1)c1c(ccc3ccccc13)NC2c1ccc(C(=O)O)cc1 (stereo not drawn)	?	?
66	O=C(NNC(=O)C1CC(c2cccnc2)=NO1)Nc1ccccc1F (stereo not drawn)	2%	0.1%
67	CCCCn1ccc(=O)c2c(C(F)(F)F)nccc21	?	-1.6%
68	COC(=O)COc1ccc(NC(=O)c2ccco2)cc1	1%	-1.1%
69	COc1cccc(NC(=O)N2CCCC2C(=O)Nc2ccc3c(c2)OCCO3)c1 (stereo not drawn)	-20%	0.9%
70	CC(=O)N(c1ccccc1C)C1CCCC1	-12%	1.8%
71	Cc1ccc(OCCCCn2ccnc2C)c(C)c1	-11%	2.0%
72	O=C(Oc1ccc2c(=O)c(Oc3ccc4ccccc4c3)coc2c1)c1ccco1	-14%	0.7%
73	Cc1nn(-c2ccccc2)c(-n2cccc2)c1C(=O)O	4%	0.4%

cpd	GLA inh pH 4.5	miR-21 FLuc
61	6	26%
62	nt	0%
63	nt	-3%
64	nt	nt
65	nt	-7%
66	-10	-1%
67	2	9%
68	-1	0%
69	-2	2%
70	-2	-5%
71	3	8%
72	-5	-20%
73	-12	-4%

# A portion of the library, so the mix of outcomes need not match the whole.
